# HNF4A DNA FP: change in binding of human HNF4 alpha to DNA. 0.3% of 360,000 active. P41235. activity change, % at 10 µM. HNF4a-FITC DNA binding, fluorescence polarization, 1 h. AID 1224865; in the data active = activity change above about 30%, passing the limit was not always enough;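 also: controls were the assay level and a saturating level of protein; the project sought stronger binding though the title names inhibitors; some compounds called inactive have numbers as strong as hits; positive values seem to mean higher polarization but the record does not say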
# E coli growth: inhibitors of Escherichia coli growth. OD600 absorbance (no concentration beside the values). 0.21% of 330,000 active. OD600, 23 h; hits give low values;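 active = OD600 absorbance below the run mean of sample wells minus 3.6 SD, in any replicate, cut at about 0.56 in these data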;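 also: stock transfer was 300 nL into about 60 µL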
# AF4-AF9 inh: blocks AF4 peptide binding to human AF9; P42568; AlphaScreen, biotin-AF4 peptide binding to FLAG-AF9; inhibition, % at 10 µM; 0.47% of 350,000 active;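 active = every replicate reaching a set inhibition limit, whatever the replicate mean, cut at about 25% in these data; inconclusive = mean inhibition reaches that limit but some replicates miss it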;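 also: 0% = plate neutral control median and 100% = total signal loss; the record names both 10 and 1 µM as test concentration; the first replicate is given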
# Target sequence (P42568 whole entry, looked up): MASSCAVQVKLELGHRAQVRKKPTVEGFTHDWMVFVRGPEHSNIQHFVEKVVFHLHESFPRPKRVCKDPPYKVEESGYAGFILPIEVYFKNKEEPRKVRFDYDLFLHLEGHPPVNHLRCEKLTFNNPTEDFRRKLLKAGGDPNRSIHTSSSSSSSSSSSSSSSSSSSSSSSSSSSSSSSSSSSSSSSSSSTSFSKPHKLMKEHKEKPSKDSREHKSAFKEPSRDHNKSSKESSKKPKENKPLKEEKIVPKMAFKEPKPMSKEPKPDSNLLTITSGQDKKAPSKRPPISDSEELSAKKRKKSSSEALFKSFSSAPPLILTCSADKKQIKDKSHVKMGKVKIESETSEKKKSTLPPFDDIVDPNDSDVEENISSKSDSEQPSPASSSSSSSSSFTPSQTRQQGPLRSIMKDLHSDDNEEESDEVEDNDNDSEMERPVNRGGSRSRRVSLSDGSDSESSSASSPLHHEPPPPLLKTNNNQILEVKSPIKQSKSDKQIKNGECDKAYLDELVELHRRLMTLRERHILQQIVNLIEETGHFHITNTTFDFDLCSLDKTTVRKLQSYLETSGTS
# Vif A3G: HIV-1 Vif–A3G interaction blockers – biochemical, TR-FRET, GST-Vif 1-94, biotin-A3G peptide, dose response retest, primary screen (AID 1117319); 0.57% of 260,000 active; inhibition, %; hits with a dose series show IC50 in µM; TR-FRET GST-Vif / biotin-A3G peptide binding; higher % means a stronger effect; test concentration not given here; strong numbers were not always called active;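 active = above the screen mean plus three standard deviations and confirmed in dose response; inconclusive = results disagree or hit not tested in dose response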;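 also: Vif residues 1-94 fused to GST binding biotinylated APOBEC3G peptide 110-148; 0% = full assay without inhibitor and 100% = GST in place of GST-Vif; retest series ran down from 100 µM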
# rRNA inh HTS: selective bacterial rRNA inhibition in E. coli | E. coli WT GFP vs humanized-ribosome RFP mutants, fluorescence, 24 h; hits give low values; DMSO median 0, no signal -100 | GFP signal change (wild-type ribosome), % (no concentration beside the values) | 1.6% of 350,000 active | AID 720706;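 active = significant combined selectivity score with lowered wild-type GFP, culture density cut under 30%, mutant RFP and density less affected; inactive = any of these conditions unmet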; also: one replicate is shown; some compounds called inactive have numbers as strong as hits
# ALR inh: inhibitors of human sulfhydryl oxidase ALR | 3.8% of 290,000 active | inhibition, % (no concentration beside the values) | P55789 | purified ALR, DTT oxidation, H2O2 HRP-luminol luminescence;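 active = mean and each replicate at 75% or more; inconclusive = only one of the two met; inactive = neither met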;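 also: stock transfer was 7.5 nL into about 7.5 µL; 0% = neutral wells and 100% = wells with inactivated enzyme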
# Target sequence (P55789 whole entry, looked up): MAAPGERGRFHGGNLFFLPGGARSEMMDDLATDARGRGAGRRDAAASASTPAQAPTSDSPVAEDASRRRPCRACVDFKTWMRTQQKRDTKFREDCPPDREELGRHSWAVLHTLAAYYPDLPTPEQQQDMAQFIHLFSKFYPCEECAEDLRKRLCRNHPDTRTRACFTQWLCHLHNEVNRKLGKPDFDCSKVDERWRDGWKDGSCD
# FGF22 binding: shifts melting point of recombinant human FGF22; recombinant FGF22 thermal shift, SYPRO orange fluorescence; percent of sucrose octasulfate shift, DMSO zero; AID 651658; 1.5% of 340,000 active; calls only at 9.99 µM;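 active = melting point raised past a set limit in the mean and every replicate; inconclusive = no clear call; three in four hits are not shown here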
# Target sequence (Q9HCT0 whole entry, looked up): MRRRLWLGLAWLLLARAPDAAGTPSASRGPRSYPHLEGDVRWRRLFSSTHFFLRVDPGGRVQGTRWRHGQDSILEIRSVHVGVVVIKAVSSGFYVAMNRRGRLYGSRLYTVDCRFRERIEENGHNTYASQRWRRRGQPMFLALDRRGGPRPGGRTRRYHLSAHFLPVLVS
# rRNA inh HTS OD600: second read-out of rRNA inh HTS, no call of its own (marks repeat the call); OD600 change, %; measured here: OD600 growth;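 optical density of the mix in the first replicate; 0 = DMSO median and -100 = no signal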
# rRNA inh HTS RFP: further read-out of rRNA inh HTS, marked with its call; RFP signal change, %; measured here: RFP humanized mutant strains;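 first replicate; 0 = DMSO median and -100 = no signal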
# An asterisk follows results filed as active; i = inactive; ? = inconclusive; · = not tested or not shown; & = joins results of further samples. Not all compounds are listed; the hit share may differ from the screen's.
HNF4A DNA FP,E coli growth,AF4-AF9 inh,Vif A3G,rRNA inh HTS,rRNA inh HTS OD600,rRNA inh HTS RFP,ALR inh,FGF22 binding,Molecule
14,0.66,3.1,·,3,2,2.7,2,i,Cc1ccc(CN(C)C(=O)C2CCC(=O)N(C3CCCCCC3)C2)cc1 (centres undefined)
·,·,-13,·,3,8,0.5,·,i,O=C(C[C@H]1C=C[C@@H](NC(=O)C2CC2)[C@@H](CO)O1)NCCCN1CCOCC1
·,·,-0.5,·,-2,0,2.5,·,i,C[C@H]1CN([C@@H](C)CO)S(=O)(=O)c2ccc(C#Cc3ccccn3)cc2O[C@@H]1CN(C)Cc1ccc(F)cc1
7.8,0.72,·,8%,·,·,·,-26,·,CC1Cc2ccccc2N1Cc1nc2cc(Cl)ccc2c(=O)[nH]1 (centres undefined)
2.9,0.71,-13,·,15,9,-1.1,-13,i,O=C(NCC(=O)N1CCN(Cc2ccccc2)CC1)c1cc(Cl)cc([N+](=O)[O-])c1
-0.1,0.7,·,-4%,·,·,·,-11,·,Cc1cc(=O)oc(C)c1C(=O)OCC(=O)c1ccc2ccccc2c1
61,·,21,-8%,-54,-81,-16,-18,i,O=C(Nc1ccc(C2=NCCN2)cc1)c1ccc(C(=O)Nc2ccc(C3=NCCN3)cc2)c(Cl)c1
0.2,0.78,·,2%,·,·,·,-2,·,Nc1nn(S(=O)(=O)c2cccc3nsnc23)cc1-c1ccc(Br)cc1
-2.9,0.65,-6.2,·,3,-1,0.5,-7,i,CCn1nc(C)c(CNC(=O)C2CCC(=O)N(CCc3ccc(OC)cc3)C2)c1C (centres undefined)
6.2,0.66,-7.7,·,7,14,29,-12,i,COC(=O)CCC(=O)OC1(C)C(=O)C2=CN(C3CC3)C(c3ccc(OC)cc3)=CC2=C(Br)C1=O (centres undefined)
0.6,0.66,-1.3,·,10,8,-0.5,-3,i,O=C(NC(Cc1ccccc1)C(=O)O)c1cccnc1Cl (centres undefined)
-15,0.63,-1.0,-1%,3,1,-1.8,-3,i,CC1(C2CC2)NC(=O)N(CC(=O)Nc2ccccc2-c2ccccc2)C1=O (centres undefined)
2.5,0.7,-2.1,·,6,8,0.1,-1,i,O=C(NCc1ccccn1)c1nc(Cn2cc([N+](=O)[O-])cn2)no1
-4.4,0.71,·,2%,·,·,·,-17,·,CCOc1ccc(S(=O)(=O)Nc2ccccc2C(=O)NCc2ccco2)cc1
0.3,0.67,-1.7,-1%,-7,-2,6.6,-7,i,Cc1ccc(S(=O)(=O)NCC(=O)OCCOc2cccc(Cl)c2)cc1
1.9,0.69,-2.2,22%,7,4,2.5,-8,i,COc1ccc(C(=O)NCc2ccc(C(=O)NCC(OC)OC)cc2)cc1OC
0.3,0.74,4.2,0%,-5,2,-3.2,·,i,Cc1cc(-c2nn(-c3ccccc3F)cc2CN2CCN(c3ccccn3)CC2)c(C)s1
3.5,0.71,·,-5%,·,·,·,-2,·,O=C(COC(=O)C1=COCCO1)NCCCc1ccccc1
8.2,0.67,-22,·,3,5,-2.1,-2,i,COc1ccc(CNC(=O)CN(c2ccc(C)cc2)S(=O)(=O)c2c(C)noc2C)cc1
-4.0,0.66,-0.5,7%,·,·,·,-3,i,Cc1cc(C)cc(CSc2ccc(S(=O)(=O)N3CCCC3)cn2)c1
2.1,0.67,-0.4,·,15,7,2.3,8,i,COc1ccc(C(=O)C[n+]2cccc3cc(C)ccc32)cc1
1.6,0.7,-2.3,·,2,-12,7.1,·,i,O=c1[nH]c(C(Cl)(Cl)Cl)nc2ccc3ccccc3c12
3.6,0.65,0.8,2%,4,10,-1.5,95*,i,Cc1cc(Nc2n[nH]c(N)c2C#N)ccc1F
-0.9,·,1.7,·,6,13,0.8,·,i,NC(c1ccccc1)c1csc(Nc2ccc(C(=O)NCCO)cc2)n1 (centres undefined)
·,·,-3.6,·,5,26,-0.4,·,i,C[C@@H]1CN([C@@H](C)CO)C(=O)Cc2cc(NC(=O)CCC(F)(F)F)ccc2O[C@H]1CN(C)S(C)(=O)=O
22,0.68,·,5%,8,19,-2.9,-7,·,CCOC(=O)c1ccc(NCn2c(=O)oc3ccccc32)cc1
-3.5,0.63,0.8,-7%,7,5,-2.1,-4,i,CCc1ccccc1NC(=O)c1cc(C)no1
·,·,-0.8,·,-2,9,-2.5,·,i,COc1ccc(NC(=O)N2C[C@H](O)COC[C@H]3O[C@H](CC(=O)NC4Cc5ccccc5C4)CC[C@@H]32)cc1
·,·,0.1,·,-2,-7,0.0,·,i,COc1ccccc1NC(=O)N[C@@H]1C=C[C@H](CC(=O)N[C@@H](C)c2ccccc2)O[C@H]1CO
·,·,-15,·,-4,6,0.6,·,i,O=C(C[C@@H]1C=C[C@H](NC(=O)Nc2ccccc2F)[C@@H](CO)O1)NCc1ccc(-c2ccccc2)cc1

# A run of entries from the list above, for reference:
HNF4A DNA FP,E coli growth,AF4-AF9 inh,Vif A3G,rRNA inh HTS,rRNA inh HTS OD600,rRNA inh HTS RFP,ALR inh,FGF22 binding,Molecule
·,·,-13,·,3,8,0.5,·,i,O=C(C[C@H]1C=C[C@@H](NC(=O)C2CC2)[C@@H](CO)O1)NCCCN1CCOCC1
·,·,-0.5,·,-2,0,2.5,·,i,C[C@H]1CN([C@@H](C)CO)S(=O)(=O)c2ccc(C#Cc3ccccn3)cc2O[C@@H]1CN(C)Cc1ccc(F)cc1
7.8,0.72,·,8%,·,·,·,-26,·,CC1Cc2ccccc2N1Cc1nc2cc(Cl)ccc2c(=O)[nH]1 (centres undefined)
2.9,0.71,-13,·,15,9,-1.1,-13,i,O=C(NCC(=O)N1CCN(Cc2ccccc2)CC1)c1cc(Cl)cc([N+](=O)[O-])c1

# Continuation:
HNF4A DNA FP,E coli growth,AF4-AF9 inh,Vif A3G,rRNA inh HTS,rRNA inh HTS OD600,rRNA inh HTS RFP,ALR inh,FGF22 binding,Molecule
0.3,·,-1.5,·,6,-1,2.9,·,i,COC(=O)N1CCCCC1c1cc(C(=O)Nc2ccc(OC)cc2C)no1 (centres undefined)
·,·,-1.4,·,0,-2,-0.5,·,i,CO[C@@H]1CN(C)C(=O)c2ccc(NS(=O)(=O)c3ccccc3)cc2OC[C@@H](C)N(C)C[C@H]1C
-2.1,·,-9.1,·,12&-1,-1&0,1.1&-9.5,-9,i,CCN1C(=O)[C@H]2[C@@H](c3ccc(C)cc3)N3C(=O)N(c4ccc(OC)cc4)C(=O)[C@@]3(Cc3ccc(Cl)cc3)[C@H]2C1=O
-1.6,0.67,·,6%,·,·,·,·,·,CCCn1c(Nc2ccccc2C)nc2ccccc21
1.6,·,·,·,-26,-57,20,·,i,CCC[C@@H](CN[C@@H](CNC)[C@H](C)CC)NCC1CCC(C(C)(C)C)CC1 (some centres undefined)
-1.5,·,·,?,·,·,·,1,·,CCc1ccc(NC(=O)C2CC(=O)Nc3ncnn32)cc1 (centres undefined)
0.6,0.68,·,17%,·,·,·,-2,·,CCc1ccc(OCCOCC(O)CNC(C)CC)cc1 (centres undefined)
-2.7,·,1.6,·,-2,7,-2.6,7,i,C/C(CC(=O)Nc1ccc(Cl)cc1)=N\NC(=O)C(=O)N1CCCCC1
1.1,0.69,-0.7,·,-8,-18,2.2,-7,i,Cc1cc(-c2ccc(Cl)cc2)n2nc(C)cc2n1
-0.9,0.74,·,0%,·,·,·,-1,·,Cc1cc(C(F)F)n2ncc(C(=O)N3CCC(C(N)=O)CC3)c2n1
2.9,0.64,3.1,-3%,0,-1,-3.0,-5,i,CCCCN(C(=O)Cc1ccc2c(c1)OCCO2)c1c(N)n(CCC)c(=O)[nH]c1=O
0.0,·,-4.0&0.2&2.9,-2%,8&3,23&2,-1.5&2.0,·,i,Cc1noc(C)c1NC(=O)N(C)C[C@H]1OCc2cnnn2CCCC(=O)N([C@H](C)CO)C[C@@H]1C
-1.7,0.7,-0.1,-5%,·,·,·,-4,·,O=C(CN(C(=O)c1ccc(Cl)cc1)N1C(=O)C2C3C=CC(C3)C2C1=O)c1cccs1 (centres undefined)
2.6,0.66,·,-2%,·,·,·,?,·,CCOc1ccccc1N1CCN(Cc2cccc(OC)c2O)CC1
7.1,0.65,-0.8,-4%,4,4,3.4,-13,i,CCn1c(CNC(=O)c2ccccc2F)cc2ccccc21
2.2,·,·,-4%,·,·,·,-15,·,CCOc1cc(/C=N/NC(=O)Cc2ccc(C(F)(F)F)cc2[N+](=O)[O-])c(Br)cc1OC
1.6,0.69,-3.2,-3%,6,7,-2.2,-12,i,COCCn1cnnc1SCC(=O)Nc1cc(C)on1
·,·,-2.5,·,0,4,-1.7,·,i,CC(=O)N1[C@H](CO)[C@H](c2ccccc2)C12CN(C(=O)Cc1ccccc1)C2
1.6,0.68,-3.8,0%,0,0,-7.3,·,i,Cc1nc(Cl)c(C(=O)NCCc2ccccc2)c(C)c1[N+](=O)[O-]
-0.8,·,-1.0,·,5,18,0.9,·,i,CCOC(=O)N(C)c1c(CC)nc2c(OCC(=O)C(C)(C)C)cccn12
-1.7,0.69,·,0%,·,·,·,-4,·,CC(=O)c1ccc(-n2nncc2C)cc1
0.7,·,-5.9,5%,7,8,1.1,0,i,O=C(Cc1cccs1)N/N=C/C(Cl)=C/c1ccccc1
·,·,4.6,·,-4,-5,2.5,·,i,C[C@H](CO)N1C[C@H](C)[C@@H](CN(C)C(=O)CCC(F)(F)F)OCc2ccccc2-c2c(n(C)c3ccccc23)C1=O
0.9,·,-1.3,·,13,7,2.9,·,i,Cc1ccc(C(=O)NCCN2CCC(n3c(=O)[nH]c4ccccc43)CC2)cc1
2.5,·,-12,·,10,9,2.8,·,i,COc1ccc(Cn2cc(CN3CC(N4CCCCC4)CS3(=O)=O)nn2)cc1 (centres undefined)
-0.5,0.7,-13,4%,-12,-12,1.7,1,i,O=C(c1ccccc1Cc1ccccc1)N1CCN(S(=O)(=O)c2ccccc2[N+](=O)[O-])CC1
-1.3,0.67,-0.3,·,11,4,1.1,3,i,CC1CCOC(c2coc3ccccc3c2=O)O1 (centres undefined)
-1.6,0.71,·,3%,·,·,·,-10,·,COC(=O)Cn1cnc2sc(C)c(S(=O)(=O)N3CCC(C)CC3)c2c1=O
-3.5,0.7,-1.1,1%,7,11,0.0,·,i,Cc1cccc(C)c1NC(=O)CNC(=O)C1CC(=O)N(Cc2ccccc2)C1 (centres undefined)
0.2,·,-0.3,·,0,14,-2.4,·,i,Cc1ccc(NC(=O)[C@@H]2O[C@H](CO)[C@@H](O)[C@H]2O)cc1C(F)(F)F
8.0,·,4.4,·,14,7,4.5,-4,i,COc1cc(S(=O)(=O)N2CCN(Cc3ccc4c(c3)OCO4)CC2)ccc1NC(C)=O
-0.8,0.7,-0.2,-3%,5,1,5.5,-1,i,CC(C)CN(CC(C)C)C(=O)COn1nnc2ccc(S(=O)(=O)N3CCOCC3)cc21
·,·,8.3,·,0,2,-0.2,·,i,COc1ccc(NC(=O)Nc2ccc3c(c2)C(=O)N([C@@H](C)CO)C[C@@H](C)[C@H](CN(C)C(=O)CCCN(C)C)OCCCC[C@@H](C)O3)cc1

# Four compounds already listed, sorted by the number in rRNA inh HTS RFP, falling.
SMILES | rRNA inh HTS RFP
CCC[C@@H](CN[C@@H](CNC)[C@H](C)CC)NCC1CCC(C(C)(C)C)CC1 (some centres undefined) | 20
Cc1cccc(C)c1NC(=O)CNC(=O)C1CC(=O)N(Cc2ccccc2)C1 (centres undefined) | 0.0
CO[C@@H]1CN(C)C(=O)c2ccc(NS(=O)(=O)c3ccccc3)cc2OC[C@@H](C)N(C)C[C@H]1C | -0.5
CC(=O)N1[C@H](CO)[C@H](c2ccccc2)C12CN(C(=O)Cc1ccccc1)C2 | -1.7
